From PubChem
Rango release inh = inhibitors of RanGTP-induced Rango-importin beta complex dissociation | Biochemical FRET Rango-importin beta, RanGTP-induced dissociation | Potency, µM (top dose mostly 46.1 µM), without a hit: at the top dose activity change, negative = inhibition | hit rate 0.071% among 340,000 | AID 540253; active means falling FRET ratio curve, often poorly fitted, with flat reads before Ran was added; inconclusive means other falling curves, or compound fluorescence or quenching; inactive means flat or rising ratio curve;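 further: potency means the concentration at half of the fitted maximal effect; % of control where 0% means no effect; nearly all actives have a fitted effect of over 45% in size; -100% = wells without RanGTP and RCC1; the record marks most hits as doubtful in a second field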
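Compounds preincubate 5 min with complex of recombinant Rango and importin beta in PBS with 1 mM DTT. Ran (0.6 uM) loaded with 2 mM GTP plus 0.2 uM RCC1 starts dissociation; FRET is recorded 45 min later.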
miR-21 FLuc = miR-21 reporter, rising signal. HeLa miR-21 FLuc reporter, luciferase, 48 h. Potency, µM (series often up to 38.3 µM), for inactives: at the highest dose reporter change, positive = more light. 340,000 tested, under 10 active. AID 2288; active = well fitted rising curve with a large enough effect; inconclusive = small, poorly fitted or top-dose-only effect; inactive = no such curve, though single readings can be large or run the other way;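 further: % of control where 0% means no effect; miR-21 action dims this reporter so a rising signal means less miR-21 action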
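Compounds were titrated across several concentrations (up to approximately 40 uM) and incubated 48 hours with HeLa miR-21-FLuc reporter cells (miR-21 target sequence downstream of FLuc, endogenous miR-21). Readout was firefly luciferase luminescence after lytic detection reagent.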
Rango complex inh = Rango-importin beta binding inhibition | Q14974 | Rango CFP/YFP FRET sensor + importin beta, 45 min | Potency, µM (top dose mostly 92.2 µM), for inactives: at the top dose inhibition of complex formation | hit rate 0.031% among 340,000; active = rising FRET ratio curve, often small or poorly fitted; inconclusive = mostly compound fluorescence or quenching in the first reads; inactive = flat curves in all reads;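 further: potency means the concentration at half of the fitted maximal effect; 0% = DMSO wells and 100% = buffer wells lacking importin beta; nearly all actives have a fitted effect of over 15% in size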
Target sequence (Q14974 whole entry, looked up): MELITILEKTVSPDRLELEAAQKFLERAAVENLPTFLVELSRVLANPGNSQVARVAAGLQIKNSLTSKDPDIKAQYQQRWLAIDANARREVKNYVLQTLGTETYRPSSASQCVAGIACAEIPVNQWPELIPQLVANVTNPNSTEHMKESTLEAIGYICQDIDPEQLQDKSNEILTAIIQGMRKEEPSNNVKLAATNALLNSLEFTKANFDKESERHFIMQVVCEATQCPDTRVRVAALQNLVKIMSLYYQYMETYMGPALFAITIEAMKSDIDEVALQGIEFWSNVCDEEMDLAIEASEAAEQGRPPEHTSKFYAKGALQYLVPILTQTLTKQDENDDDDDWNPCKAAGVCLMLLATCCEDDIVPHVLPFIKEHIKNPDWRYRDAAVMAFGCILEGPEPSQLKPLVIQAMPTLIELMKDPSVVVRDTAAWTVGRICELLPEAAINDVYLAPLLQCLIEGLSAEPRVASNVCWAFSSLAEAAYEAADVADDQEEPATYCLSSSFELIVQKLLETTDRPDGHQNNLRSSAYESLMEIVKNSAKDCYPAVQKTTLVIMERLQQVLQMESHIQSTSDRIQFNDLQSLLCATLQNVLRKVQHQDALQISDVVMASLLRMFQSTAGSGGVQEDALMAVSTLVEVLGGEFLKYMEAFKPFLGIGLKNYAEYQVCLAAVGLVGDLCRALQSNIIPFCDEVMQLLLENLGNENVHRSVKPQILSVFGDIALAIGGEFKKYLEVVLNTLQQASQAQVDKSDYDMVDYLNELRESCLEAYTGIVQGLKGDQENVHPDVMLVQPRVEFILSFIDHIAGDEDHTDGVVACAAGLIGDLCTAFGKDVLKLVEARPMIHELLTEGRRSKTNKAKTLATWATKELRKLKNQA
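Inhibition scored from the CFP 486 nm/YFP 530 nm FRET ratio 45 min after adding 0.125 microM importin beta to 50 nM Rango biosensor preincubated 5 min with compound (room temperature, PBS with DTT, Tween-20, BSA). No-importin wells as positive control.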
GLA inh pH 4.5 = alpha-galactosidase A (human) inhibition, pH 4.5 | activity change, negative = inhibition, % at 105 µM | AID 1467 | purified enzyme, 4-MU-alpha-Gal fluorescence, pH 4.5 | 230,000 tested, under 10 active; inconclusive = small, poorly fitted or top-dose-only inhibition, or a rising curve; inactive = flat fitted curve, though single readings scatter; no compound was filed as active;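 further: 0% = full activity with enzyme and -100% = basal without enzyme; dose as in the result columns while the protocol names 77 µM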
* = called active by the depositor; ? = inconclusive; · = no result given; & = joins results of further samples. Not all compounds are listed (hit frequency here may not be typical).

SMILES	Rango release inh	miR-21 FLuc	Rango complex inh	GLA inh pH 4.5
COc1ccc(NC(=O)CSc2nnc(C)n2C2CC2)cc1S(=O)(=O)N1CCOCC1	2.3%	·	0.0%	·
CN(C(=O)CSc1n[nH]c(N)n1)C1CCCCC1	19.2%	·	0.0%	·
CCc1cc(-c2[nH]ncc2-c2ccc(OC)cc2)c(O)cc1O	0.1%	27.8%	-2.6%	·
CCN(CC)C(=O)CSCC(=O)Nc1ccccc1	25.2%	-4.5%	1.0%	-0.6
COc1ccc([C@H]2/C=C\CN(C(=O)C3CC3)[C@@H](C)C(=O)N2Cc2ccc(F)cc2)cc1	9.0%	·	-1.3%	·
Cc1nn(C)cc1CN(C)C(=O)c1nn2c(c1Cl)NC(c1cccs1)CC2C(F)(F)F (centres undefined)	-12.8%	8.4%	-5.2%	0.8
CCOc1ccc(C(=O)N2CCN(S(=O)(=O)c3cccs3)CC2)c(OCC)c1	-15.4%	3.1%	2.4%	·
Nc1ccc2oc(-c3cccc(Br)c3)nc2c1	-16.3%	-19.1%	?	-2.7
CCc1cc2cc(C(=O)Nc3ccc(C)cc3)sc2s1	1.3%	-49.2%	1.2%	-4.4
Cc1ccsc1/C=N/NC(=O)CNC(=O)c1ccco1	6.9%	-18.0%	2.0%	-4.2
COc1ccccc1NC(=O)N1CCCC1C(=O)NCc1ccccc1F (centres undefined)	17.8%	-3.7%	-0.6%	-0.7
O=C(Cc1ccc(-n2c(=S)[nH]c3ccccc3c2=O)cc1)N1CCN(c2ccccc2)CC1	16.4%	-1.5%	-1.6%	-2.5
CCOc1ccc(-n2c(SCC(=O)Nc3cc(C(=O)O)ccc3Cl)nc3ccccc3c2=O)cc1	2.1%	0.4%	1.1%	·
Cc1cc(S(=O)(=O)NC[C@H]2O[C@@H](n3cnc4c(N)ncnc43)[C@H](O)[C@@H]2O)c(C)s1	-7.7%	·	0.1%	·
Cc1ccc(CCN2C(=O)c3ccccc3C2C(=O)NCc2cccnc2)cc1 (centres undefined)	-17.3%	1.6%	-7.0%	-14.3
CS(=O)(=O)c1ccc2nc(NC(=O)c3ccc(=O)[nH]c3)sc2c1	-10.1%	0.5%	0.0%	5.6
N#Cc1c(N)nc2c(c1-c1ccccc1)CCCC2	0.1%	0.0%	-4.3%	-9.9
CSc1nc(Oc2ccc(C)cc2)cc(C(F)(F)F)n1	15.8%	-5.3%	4.0%	-3.6
COc1ccccc1Cn1c(C)nc2ccccc21	-3.1%	6.1%	0.1%	-3.7
CCOc1ccc2oc(-c3ccccc3)c(C(=O)N(C)C)c2c1	1.4%	4.5%	1.8%	4.1
O=C(O)c1nnn(-c2cccc(C(F)(F)F)c2)c1-c1ccccc1	-3.2%	-4.7%	-4.4%	3.6
Cc1ccc(S(=O)(=O)NCCC(=O)O)cc1	9.0%	1.2%	-0.1%	4.6
COc1ccc(C(CNS(=O)(=O)c2ccc(NC(C)=O)c(OC)c2)N2CCCC2)cc1 (centres undefined)	-13.7%	·	-2.4%	·
CCOc1ccc(C(C)=O)cc1N1C(=O)C2C3C=CC(C3)C2C1=O (centres undefined)	-13.1%	-1.6%	4.6%	9.0
COc1ccc(S(=O)(=O)N2CCN(CC(O)CN3CCOCC3)CC2)cc1 (centres undefined)	0.9%	·	-1.7%	·
COc1ccc(S(=O)(=O)Nc2ccc3c(c2)C(=O)N([C@H](C)CO)C[C@H](C)[C@@H](CN(C)C(=O)Nc2c(C)noc2C)O3)cc1	-7.1%	·	-0.6%	·
CN(c1ccccc1C(=O)N1CCOCC1)S(C)(=O)=O	12.1%	-2.5%	-1.2%	6.8
CCN(C(=O)c1cnc(OC)cc1C(F)(F)F)c1ccc(Cl)cc1Cl	-8.0%	-0.1%	-1.0%	-10.8
Cc1ccc(SCC(=O)NCCc2ccc(F)cc2)cc1	5.6%	-10.9%	2.2%	·
COc1ccccc1OCC(=O)N/N=C1/SCC(=O)N1Cc1ccccc1	5.1%	-6.7%	-0.1%	5.5
O=CN1CCN(C2CC(=O)N(c3ccc(Br)cc3)C2=O)CC1 (centres undefined)	7.5%	-0.6%	-0.4%	-3.4
COC(=O)c1ccccc1Sc1c(/C=N/OC(=O)c2ccccc2)c(C(F)(F)F)nn1C	13.7%	-1.3%	-1.7%	2.9
Cc1ccc(S(=O)(=O)Nc2ccc(C(=O)NCCCn3ccnc3)cc2)cc1[N+](=O)[O-]	1.2%	·	0.0%	·
O=C(O)C(Cc1ccccc1)N1C(=O)CCC1=O (centres undefined)	-8.3%	-1.1%	-2.9%	-8.5
C=CCNc1nc(N)c([N+](=O)[O-])c(NCCO)n1	-0.5%	-0.9%	2.0%	-7.6
CCc1cccc(NC(=O)COC(=O)c2cc(=O)c3ccccc3o2)c1	7.4%	·	-0.1%	·
O=C(O)Cc1ccc2[nH]c3ccc(CC(=O)O)cc3c2c1	2.1%	-1.9%	-1.9%	0.6
O=C(CN1CCN(Cc2ccccc2Cl)CC1)N/N=C/C=C/c1ccccc1[N+](=O)[O-]	11.4%	-9.0%	4.2%	-4.5
CCC(C)NC(=O)c1cn(-c2cccc(OC)c2)c(=O)c2ccccc12 (centres undefined)	0.6%	0.4%	-0.4%	·
C#CCN(C)Cc1ccccc1	1.5%	-0.9%	-1.8%	4.8&-10.8&9.9
COc1ccc(NC(=O)CCCn2c(=O)c3sccc3n(Cc3ccccc3C)c2=O)cc1	-15.4%	-9.6%	0.2%	-8.8
Cc1ccccc1C(=O)N1CCCN(C(=O)c2ccccc2C)CC1	-3.4%	0.0%	-1.6%	7.9
CCOC(=O)Cc1csc(NC(=O)COc2ccc3ccccc3c2)n1	-16.4%	-10.0%	1.0%	3.8
CCc1ccc(C(C(=O)NC2CCCC2)N(Cc2cccnc2)C(=O)c2csnn2)cc1 (centres undefined)	1.8%	-1.9%	0.1%	·
CCOc1cccc(C2/C(=C(\O)c3ccc4c(c3)OCCO4)C(=O)C(=O)N2Cc2ccncc2)c1 (centres undefined)	38.9%	-1.2%	-1.0%	·
C/C(=N/NC(=O)c1cnccn1)c1cccs1	-7.4%	-23.2%	-0.7%	-3.3
Cc1ccc(Cc2nc(-c3ccccn3)no2)cc1	-1.9%	-49.8%	-1.5%	6.7
CC(C)(C)OC(=O)N/N=C/c1ccc(Br)cc1	0.7%	-49.0%	0.5%	-3.8
COc1ccc(/C=C2\Sc3ccc(C(=O)NCCCN4CCCC4)cc3N(C)C2=O)cc1OC	17.0%	-20.1%	2.3%	·
COc1ccc(-c2cc(=O)oc3c(C)c(OC(C)C(C)=O)ccc23)cc1 (centres undefined)	-8.6%	-14.8%	1.0%	·
Cc1cc(N(C)N)nc(NC(=O)NS(=O)(=O)c2ccccc2Cl)n1	8.9%	-27.9%	?	·
CCN(CC(=O)Nc1c(F)cccc1F)C(=O)c1cccc(S(=O)(=O)N2CCCc3ccccc32)c1	-1.3%	·	0.0%	·
C/C=C/c1ccc(OCCCNC(C)CC)c(OC)c1 (centres undefined)	0.7%	-1.6%	-2.7%	-2.6
CC(C)C[C@@H](CN)NC(=O)c1nc[nH]c1C(=O)N[C@@H](C)C(=O)CNC[C@H](C)NC(=O)c1nc[nH]c1C(=O)N[C@@H](C)C(=O)O	18.7%	·	-1.1%	·
Cc1ccc(COc2ccsc2-c2n[nH]c(=S)n2C)cc1	12.5%	1.6%	1.6%	-19.4
Cc1ccccc1NS(=O)(=O)c1ccc(C(=O)NCC(c2ccco2)N(C)C)cc1 (centres undefined)	-0.5%	·	0.4%	·
CC(=O)c1sc(NC(=O)COc2ccc(C)c(C)c2)nc1C	-6.2%	-20.8%	2.2%	-7.0
Nn1cnnc1SCC(=O)Nc1ccc(C2CCCCC2)cc1	7.3%	-41.2%	-2.1%	-8.8
COc1cc2c(cc1OC)C(c1ccc3c(c1)OCO3)CC(=O)N2 (centres undefined)	1.6%	-13.7%	1.6%	4.2
Cc1ccc(S(=O)(=O)N[C@H](C(=O)OCC(=O)NC(=O)Nc2ccc3c(c2)OCCO3)C(C)C)cc1	-19.4%	-2.9%	?	-3.8

6 entries picked at random from those above:
SMILES	Rango release inh	miR-21 FLuc	Rango complex inh	GLA inh pH 4.5
Cc1ccc(S(=O)(=O)N[C@H](C(=O)OCC(=O)NC(=O)Nc2ccc3c(c2)OCCO3)C(C)C)cc1	-19.4%	-2.9%	?	-3.8
COc1ccc(-c2cc(=O)oc3c(C)c(OC(C)C(C)=O)ccc23)cc1 (centres undefined)	-8.6%	-14.8%	1.0%	·
C/C(=N/NC(=O)c1cnccn1)c1cccs1	-7.4%	-23.2%	-0.7%	-3.3
COc1ccc(/C=C2\Sc3ccc(C(=O)NCCCN4CCCC4)cc3N(C)C2=O)cc1OC	17.0%	-20.1%	2.3%	·
Cc1ccc(COc2ccsc2-c2n[nH]c(=S)n2C)cc1	12.5%	1.6%	1.6%	-19.4
Cc1cc(N(C)N)nc(NC(=O)NS(=O)(=O)c2ccccc2Cl)n1	8.9%	-27.9%	?	·

Of the compounds above, these contain a furan ring, fused or not.
SMILES	Rango release inh	miR-21 FLuc	Rango complex inh	GLA inh pH 4.5
Cc1ccsc1/C=N/NC(=O)CNC(=O)c1ccco1	6.9%	-18.0%	2.0%	-4.2
CCOc1ccc2oc(-c3ccccc3)c(C(=O)N(C)C)c2c1	1.4%	4.5%	1.8%	4.1
Cc1ccccc1NS(=O)(=O)c1ccc(C(=O)NCC(c2ccco2)N(C)C)cc1 (centres undefined)	-0.5%	·	0.4%	·

The main list resumes, repeating the 2 entries before the break.
SMILES	Rango release inh	miR-21 FLuc	Rango complex inh	GLA inh pH 4.5
COc1cc2c(cc1OC)C(c1ccc3c(c1)OCO3)CC(=O)N2 (centres undefined)	1.6%	-13.7%	1.6%	4.2
Cc1ccc(S(=O)(=O)N[C@H](C(=O)OCC(=O)NC(=O)Nc2ccc3c(c2)OCCO3)C(C)C)cc1	-19.4%	-2.9%	?	-3.8
CCOc1cc(C2C(C#N)=C(N)Oc3n[nH]c(-c4ccccc4)c32)ccc1O (centres undefined)	-32.9%	-1.9%	?	-27.3
Cc1cc2c(C)ccc(C)c2nc1SCC(=O)c1cccs1	-14.1%	-19.7%	?	4.5
CCOc1ccc(N(CC(=O)N2CCCCCC2)S(=O)(=O)c2ccc(C)cc2)cc1	-0.5%	-3.8%	-3.4%	·
CSCC[C@H](NC(=O)OCc1ccccc1)C(=O)O	-9.4%	0.6%	-6.2%	8.6
CCOc1ccc(C(=O)N/N=C/c2ccc(SC)cc2)cc1	0.4%	-11.2%	-0.2%	-5.6
CSCCC1NC(=O)N(CC(=O)Nc2cc(C)on2)C1=O (centres undefined)	-8.8%	·	-0.4%	·
COCCCn1cnnc1SCc1nc2sc(C(C)=O)c(C)c2c(=O)[nH]1	0.7%	8.6%	?	12.0
COCCC(=O)N1CCC(Oc2ccc(C(=O)N(C)C(C)c3ccon3)cc2)CC1 (centres undefined)	0.7%	-0.6%	2.6%	·
